Screens from PubChem.
Cruzain noTriton = cruzain (T. cruzi) inhibition without detergent. Potency, µM, without a hit: max response, negative = inhibition, most hits filed as inhibitors. actives 2.3% (n = 200,000). P25779. purified cruzain, Z-FR-AMC fluorescence, no detergent. AID 1476;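 also: plate controls were enzyme without inhibitor for no effect and buffer without enzyme for full effect; nearly all actives have a fitted effect of over 40% in size; top concentration of the series not given in the record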
Target sequence (P25779 123-467 limits assumed): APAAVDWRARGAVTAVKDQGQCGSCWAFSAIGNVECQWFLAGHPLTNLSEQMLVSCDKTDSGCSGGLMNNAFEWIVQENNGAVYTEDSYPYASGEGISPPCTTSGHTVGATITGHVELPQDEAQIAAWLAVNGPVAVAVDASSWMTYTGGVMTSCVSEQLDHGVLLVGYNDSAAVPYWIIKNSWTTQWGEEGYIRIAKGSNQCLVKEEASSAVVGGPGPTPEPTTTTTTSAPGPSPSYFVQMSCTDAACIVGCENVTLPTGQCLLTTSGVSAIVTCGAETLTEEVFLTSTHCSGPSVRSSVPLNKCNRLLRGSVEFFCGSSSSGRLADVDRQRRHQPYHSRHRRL
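Detergent-free condition (0.00005% Triton X-100) in acetate buffer pH 5.5 with DTT. 1.5 nM enzyme and compound were pre-mixed 15 min, then 2 uM Z-FR-AMC substrate added; reaction progress from fluorescence change between first and third reads (60 s).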
Cruzain Triton = cruzain (T. cruzi) inhibition with detergent; P25779; purified cruzain, Z-FR-AMC fluorescence, 0.01% Triton; Potency, µM, without a hit: max response, negative = inhibition, hits mostly inhibitors; actives 0.43% (n = 200,000); AID 1478;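 also: plate controls were neutral wells for no effect and buffer without enzyme for full effect; nearly all actives have a fitted effect of over 40% in size; top concentration of the series not given in the record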
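Detergent-containing arm of a paired screen for aggregation-based inhibition: 0.01% Triton X-100 present. Cruzain at 1.5 nM cleaved 2 uM Z-FR-AMC at pH 5.5 with 5 mM DTT; AMC fluorescence gain over 60 s measured activity.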
2A StopGo = lowers the luciferase signal of an FMDV 2A StopGo reporter; human cells with a luciferase reporter of 2A StopGo recoding; control for the full effect not named in the record; Potency, µM (highest dose often 57.9 µM), for inactives: at the top dose signal change, negative = less light; actives 1.2% (n = 410,000); AID 1159524; active = well fitted falling curve with a large enough effect; inconclusive = small, poorly fitted or top-dose-only effect; inactive = no such curve, though single readings can be large or run the other way; tested in HEK293T cells; also: % is scaled to controls: 0 for no effect and ±100 for the full control effect; nearly all actives have a fitted effect of over 45% in size; luciferase light after 4 h
NS1 function inh = blocks influenza NS1 protein function; AID 2326; S. cerevisiae slowed by influenza A NS1, growth recovery by OD600; actives 0.4% (n = 270,000); Potency, µM (titrated, usually from 46.1 µM), without a hit: top-dose activity, positive = more growth; active means well fitted rising curve with a large enough effect; inconclusive means small, poorly fitted or top-dose-only effect; inactive means no such curve, though single readings can be large or run the other way; also: nearly all actives have a fitted effect of over 50% in size
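OD600 was taken as the measure of yeast growth restored by compound in an NS1-expressing S. cerevisiae strain. Cells had been washed out of glucose medium and diluted 1:100 into galactose -URA medium, pH 6.0.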
MARV entry inh = blocks Marburg virus binding to or entry into cells; Marburg virus pseudotyped entry inhibition, cell reporter; control for the full effect not named in the record; about a third of the inactives were read at about 46 µM; Potency, µM (titrated, usually from 37.8 µM), inactives show at the top dose activity change, negative = inhibition, hits mostly inhibitors; actives 1.8% (n = 300,000); AID 540276; active = well fitted inhibition curve with a large enough effect; inconclusive = small, poorly fitted or top-dose-only effect, or effect the other way; inactive = flat fitted curve, though single readings scatter; tested in HEK293 cells; about a fifth of its hits are not listed in these tables; also: % is scaled to controls: 0 for no effect and ±100 for the full control effect; luciferase read-out
RE007 growth inh = less growth of the S. pombe RE007 Vpr strain | S. pombe RE007 Vpr strain, BacTiter-Glo ATP luminescence, 24 h; control for the full effect not named in the record | Potency, µM (top dose mostly 92.2 µM), inactives show top-dose activity change, negative = less growth | actives 0.21% (n = 360,000) | AID 651644; active = well fitted falling curve with a large enough effect; inconclusive = small, poorly fitted or top-dose-only effect; inactive = no such curve, though single readings can be large or run the other way;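 also: % is scaled to controls: 0 for no effect and ±100 for the full control effect; nearly all actives have a fitted effect of over 50% in size; the assay follows cell death caused by Vpr and the record does not say whether a fall means rescue or toxicity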
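Fission yeast RE007 carrying one integrated HIV-1 vpr copy, seeded at OD 0.01 in PMG+AL medium with 23 nL pinned compound. Grown 24 h at 30 degrees; viability read by BacTiter-Glo luminescence after 5 min.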
SARS PLP yeast = blocks SARS-CoV papain-like protease in a yeast assay. S. cerevisiae expressing SARS-CoV PLpro, growth rescue; control for the full effect not named in the record. Potency, µM (titrated, usually from 32.9 µM), for inactives: at the top dose activity, positive = growth rescue. actives 0.19% (n = 330,000). AID 485353; active means well fitted rising curve with a large enough effect; inconclusive means small, poorly fitted or top-dose-only effect; inactive means no such curve, though single readings can be large or run the other way; also: 0% is about no effect; nearly all actives have a fitted effect of over 55% in size; growth read by luminescence after 48 h
Lassa entry inh = Lassa virus entry inhibition. Lassa virus pseudotype entry inhibition, cell reporter; control for the full effect not named in the record. Potency, µM (doses to about 37.9 µM), for inactives: at the top dose activity change, negative = inhibition, usual class: inhibitors. actives 1.2% (n = 300,000); active means well fitted inhibition curve with a large enough effect; inconclusive means small, poorly fitted or top-dose-only effect, or effect the other way; inactive means flat fitted curve, though single readings scatter; tested in HEK293 cells; also: % is scaled to controls: 0 for no effect and ±100 for the full control effect; nearly all actives have a fitted effect of over 50% in size; luciferase read-out
Numbers without * were called inactive; ? = inconclusive; nt = not tested or not shown; & = joins results of further samples; [ ] = remark or other dose. Unless noted, calls follow the shape of the dose curve; as a rule, active = well fitted curve in the direction sought with a large enough effect; inconclusive = small, poorly fitted or top-dose-only effect, or another doubt; inactive = no such curve, though single readings can be large; an effect the other way counts as inactive or inconclusive. Potency is read from the fitted curve at half-maximal effect.

SMILES	Cruzain noTriton	Cruzain Triton	2A StopGo	NS1 function inh	MARV entry inh	RE007 growth inh	SARS PLP yeast	Lassa entry inh
CC1CC(C)(C)CC2(C1)NC(=O)N(CC(=O)NCCc1c[nH]c3ccccc13)C2=O (stereo not given)	-2%	-3.3%	-26%	7%	nt	12%	-24%	-6%
Cc1ccccc1CN1C(=O)/C(=C\c2ccc(C(=O)NCCN3CCOCC3)cc2)Sc2ccccc21	nt	nt	0%	19%	?	5%	0%	?
COc1ccc(N(CC(=O)Nc2cccc(C)c2)S(=O)(=O)c2ccc(C)cc2)cc1OC	nt	nt	-19%	-12%	nt	2%	6%	nt
COc1ccc(NS(=O)(=O)c2cc(NC(=O)Cc3c(F)cccc3Cl)ccc2OC)cc1	nt	nt	33%[activator]	nt	-30%	13%	9%	?
O=S1(=O)CCOC[C@H](CC2CCCCC2)N1Cc1cccc(F)c1	nt	nt	0%	9%	nt	-25%	-8%	nt
Cc1ccc2oc(C(=O)NC3CCS(=O)(=O)C3)c(C)c2c1 (stereo not given)	nt	nt	19%	8%	nt	-1%	-2%	nt
Cc1ccc2nccc(C(=O)N3CCCC(N4CCN(c5ccc(F)cc5)CC4)C3)c2c1 (stereo not given)	nt	nt	?	-5%	13%	-4%	-4%	7%
CCCCN(C)C(=O)c1nc2ccccn2c1CN1CCC[C@H]1C(=O)OC	nt	nt	-15%	2%	-37%[46.1 µM]	-11%	-1%	-13%
O=C(C1=C(O)C(=O)N(CC2CCCO2)C1c1cccc(O)c1)c1ccco1 (stereo not given)	nt	nt	13%	6%	6%[46.1 µM]	1%	0%	nt
CC(C)OP(=O)(OC(C)C)C(Nc1ccccc1)c1cccnc1 (stereo not given)	nt	nt	-8%	3%	?	7%	0%	-6%
CCCOc1ccc(-c2c(C(=O)N/N=C/c3cccnc3)nnn2-c2nonc2N)cc1	nt	nt	-20%	13%	nt	-4%	3%	nt
Cc1ccccc1-n1c(SC2CCOC2=O)nnc1-c1ccncc1 (stereo not given)	nt	nt	6%	nt	-3%[46.1 µM]	-5%	0%	-24%[46.1 µM]
Cc1cc(C)c(S(=O)(=O)Nc2ccc(C(=O)O)cc2)cc1S(=O)(=O)Nc1ccc(C(=O)O)cc1	nt	nt	10%	nt	-2%	2%	nt	2%
C=CCNC(=S)/N=c1/ccccn1CC	nt	nt	-6%	-4%	-8%	?	-2%	8%
CN(CC(=O)Nc1ccc(Cl)c(C(F)(F)F)c1)C(=O)Cc1c[nH]c2ccccc12	nt	nt	-27%	nt	-15%	23%	0%	-22%
CCOc1ccc(Br)cc1S(=O)(=O)Nc1ccc(NC(=O)c2ccccc2F)cc1	25µM*	-3.3%	21%	22%	?	6%	-1%	-18%
Cc1ccccc1-n1c(O)c(C=Nc2ccc3c(c2)OCO3)c(=O)[nH]c1=O	-4%	-2.3%	-15%	-16%	15%	2%	-18%	8%
COc1ccc(C(C(=O)NC2CCCCC2)N(C(=O)c2snc(C(N)=O)c2N)c2ccccc2OC)cc1 (stereo not given)	nt	nt	-8%	7%	?	8%	-1%	10µM*
O=C(c1ccco1)N1CCN(S(=O)(=O)c2ccc3[nH]c(=O)oc3c2)CC1	-10%	-1.4%	-6%	4%	6%	-7%	3%	21%
c1ccc(SCc2cn(C[C@H]3CC[C@@H]([C@@H]4CC[C@H](Cn5cc(CSc6ccccc6)nn5)O4)O3)nn2)cc1	nt	nt	-28%	3%	nt	-8%	-5%	nt
COc1ccccc1-c1cc(C(=O)N2CCN(c3ccc(F)cc3)CC2)no1	2%	-0.2%	13%	-5%	-3%	-1%	-1%	-29%
Cn1c(SCC(=O)Nc2ccccc2)nnc1-c1ccc2nonc2c1	nt	nt	4%	-3%	-8%[46.1 µM]	-19%	-1%	-13%[46.1 µM]
Cc1ccc(CC(=O)NCCCn2ccnc2)cc1	nt	nt	-6%	nt	10%[46.1 µM]	-18%	1%	5%
COC(=O)c1nc2n(n1)C(c1cccc(Cl)c1)C(C(=O)Nc1ccccc1OC)=C(C)N2 (stereo not given)	-16%	3.7%	-22%	nt	?	nt	nt	-4%[46.1 µM]
CCOC(=O)C(Cc1ccccc1)C(=O)Nc1cccc2ccccc12 (stereo not given)	11%	-1.9%	-26%	-44%	?	-13%	-8%	-19%
CCc1ccc(CNC(=O)CSCc2cnn(-c3ccccc3)c2-n2cccc2)cc1	14%	-8.9%	-20%	nt	-8%[46.1 µM]	nt	nt	?
O=C1c2ccccc2S(=O)(=O)N1Cc1nc2ccccc2s1	-15%	-6.2%	?	-8%	?	-17%	8%	1µM*
Cc1nn(C)c2c1c(C(F)(F)F)cc(=O)n2C(C)C(=O)NCCc1ccc(Cl)cc1 (stereo not given)	-2%	0.4%	-20%	nt	nt	nt	nt	-1%[46.1 µM]
CCCN(C(=O)c1cc(-c2ccco2)nc2ccccc12)c1c(N)n(Cc2ccccc2)c(=O)[nH]c1=O	nt	nt	0%	nt	-21%	-2%	-18%	10%
O=C(N/N=C/c1ccccc1O)c1ccc2c(c1)OCO2	nt	nt	-14%	-39%	5µM*	2%	8%	?
COc1ccc(CC(=O)OCC(=O)Nc2ncc(Cl)cc2Cl)cc1OC	-1%	3.1%	-3%	-6%	14%	-3%	-2%	5%
Cc1cc(C)c2nc(N3CCC(C(=O)N4CCN(C(=O)c5ccco5)CC4)CC3)sc2c1	?	-6.3%	?	3%	-2%	?	-9%	-3%
CCCC(=O)OCC(=O)Nc1cc([N+](=O)[O-])ccc1OC	nt	nt	-10%	-8%	20%[46.1 µM]	13%	-4%	20%[46.1 µM]
Cc1ccc(C(=O)Nc2ccc(Cc3ccncc3)cc2)cc1[N+](=O)[O-]	-1%	0.1%	?	-8%	-28%	4%	-11%	?
CCOC(=O)CN1C(=O)S/C(=C/c2ccc(N3CCCCC3)o2)C1=O	8%	1.6%	-6%	-3%	19%	-5%	-14%	-11%
CCC(=NCc1ccco1)c1c(O)n(-c2ccccc2)c(=O)[nH]c1=O	-4%	2.6%	-20%	-2%	13%	3%	6%	?
CCOC(=O)N1CCC(NC(=O)c2cc(S(=O)(=O)N3CCc4ccccc43)cn2C)CC1	?	-2.0%	?	-10%	-25%	4%	-13%	-13%
COc1ccc(C(=O)c2cnc[nH]2)cc1OC	nt	nt	-26%	-3%	nt	3%	1%	nt
COc1ccccc1CC(=O)NNS(=O)(=O)c1ccccc1[N+](=O)[O-]	nt	nt	-2%	1%	1%[46.1 µM]	-2%	0%	-18%
Cn1c(SCC(=O)c2c(N)n(C)c(=O)n(C)c2=O)nnc1-c1ccccc1	-1%	5.6%	-5%	14%	15%	1%	2%	-1%
Cc1ccc(C(=O)NCc2nnc3c(C(F)(F)F)cc(Cl)cn23)o1	nt	nt	-8%	10%	18%[46.1 µM]	-4%	-6%	14%[46.1 µM]
CN(C)Cc1cc(C(C)(C)c2ccccc2)ccc1O	nt	nt	-7%	nt	?	?	nt	?
CCc1nc(-c2ccccc2)cc(=O)[nH]1	3%	-2.6%	nt	-3%	9%	2%	-1%	-1%
CCc1ccc(NC(=O)[C@H](Cc2ccccc2)N2Cc3ccccc3C2=O)cc1	8%	1.2%	5%	nt	?	nt	nt	12%[46.1 µM]
Cc1oc(-c2ccccc2F)nc1CSCC(=O)NC1CC1	nt	nt	-9%	3%	1%[46.1 µM]	-6%	-4%	-4%[46.1 µM]
COc1ccc(CCn2c(C)cc3c(c2=O)C(c2ccncc2)C(C#N)=C(N)O3)cc1OC (stereo not given)	-8%	2.9%	-20%	-7%	-7%&-7%	-4%	-3%	-2%
COC(=O)c1ccccc1NC(=O)CSc1nc2nc(C)cc(C)n2n1	7%	-1.1%	-3%	nt	-4%[46.1 µM]	nt	nt	13%[46.1 µM]
Cc1ccc(N2NC3(CCN(C(N)=O)CC3)NC2=O)cc1	nt	nt	-2%	-2%	?	39%	-1%	?
Cc1ccc(S(=O)(=O)N2CCCCC2CCNC(=O)C(=O)NCc2ccccc2)cc1 (stereo not given)	nt	nt	-6%	nt	?	-2%	7%	?
CC(C)n1c(O)c(N=Nc2ccc(Cl)nn2)c2ccccc21	-8%	-2.0%	-16%	2%	?	6%	-4%	10%

(listing goes on)
SMILES	Cruzain noTriton	Cruzain Triton	2A StopGo	NS1 function inh	MARV entry inh	RE007 growth inh	SARS PLP yeast	Lassa entry inh
COc1ccc(C(=O)c2cnc3ccccc3c2-c2ccccc2)cc1	-6%	-2.8%	?	-41%	?	3%	-3%	0%
CC(C)CCNC(=O)C(C)N(Cc1ccc(F)cc1)C(=O)c1ccc(CN2CCOCC2)o1 (stereo not given)	nt	nt	-6%	-2%	-18%[46.1 µM]	14%	0%	24%
CC(=O)c1sc(NC(=O)c2ccc(C)cc2)nc1C	-25%	-0.5%	10%	-20%	1%[46.1 µM]	16%	-4%	?
Clc1ccc(Cn2nnc3ccccc32)cc1	nt	nt	11%	-5%	-1%	2%	-7%	?
COc1ccccc1Nc1nc(N)nc(CN2CCC(Cc3ccccc3)CC2)n1	-3%	1.4%	-6%	-12%	?	5%	2%	13%
O=C(NC1CCCCC1)C1CCCN(S(=O)(=O)c2cccs2)C1 (stereo not given)	-5%	7.5%	-5%	0%	-12%	22%	3%	-3%
O=C(CCC(=O)Nc1ccc(F)cc1)N/N=C/c1ccccc1	nt	nt	13%	-1%	nt	0%	-2%	nt
Cc1ccc(Nc2nc(N)nc(CCl)n2)cc1	nt	nt	7%	4%	?	10%	0%	?
COc1ccc(CN(C)S(=O)(=O)c2nnc(NC(=O)c3ccccc3OC)s2)cc1OC	nt	nt	-10%	7%	?	-2%	-1%	18%[46.1 µM]
COc1cccc(NC(=O)COC(=O)CNS(=O)(=O)c2c(F)cccc2F)c1	-18%	-8.7%	3%	5%	?	2%	?	14%
COc1ccc(/C=c2\sc3nc(-c4ccccc4)c(-c4ccccc4)n3c2=O)cc1OC	?	-19%	-23%	2%	-4%&2%	-3%	1%	-9%
O=C(COC(=O)/C=C/c1cccc(F)c1)NC1CC1	nt	nt	8%	nt	-6%	22%	-5%	13%
CC(=O)c1ccc(N2CC(C)(C)C2=O)cc1	nt	nt	0%	nt	?	9%	-3%	-1%[46.1 µM]
CN1CCN(C(=O)Nc2ccccc2CC[N+](=O)[O-])CC1	nt	nt	0%	nt	?	22%	-7%	7%
